NPYLR7 ag: mosquito NPYLR7 agonism; HEK293T NPYLR7/Galpha15, GCaMP6s calcium fluorescence; activation, % at 10 µM; 270,000 compounds, 0.15% hits; in the data active = activation above about 40%;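 note: 0% = vehicle and 100% = reference agonist at the receptor; some compounds past the cut are filed as inactive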
NPYLR7 ag max-min: further read-out of NPYLR7 ag, marked with its call; activation, %; measured here: Max-Min RFU normalised activation; some inactives read as strong as hits;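 span of the calcium signal over five minutes; 0% = vehicle and 100% = native peptide agonist; compound fluorescence can raise it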
* = called active by the depositor; & = joins results of further samples. This is a subset (hit frequency here may not be typical).

Value order – NPYLR7 ag, NPYLR7 ag max-min
CCC(Nc1cccc(OC)c1)C(=O)NCC1CCOCC1 (stereo not drawn)
 : -10, -12
COc1cccc(C(=O)NCC2CCCN(CC#Cc3ccccc3)C2)c1OC (stereo not drawn)
 : 16, 8
CS(=O)(=O)N1CCC(C(=O)NCCn2ncc3c(N4CCCC4)ncnc32)CC1
 : 0, -1
CC(CO)CN(Cc1ccccc1)CC1CC1 (stereo not drawn)
 : -3, -8
Cc1cc(N2C(=O)c3oc4ccc(F)cc4c(=O)c3C2c2cccc(OC(C)C)c2)no1 (stereo not drawn)
 : 7, 5
CN1C(C(=O)Nc2ccccn2)=C(O)c2sccc2S1(=O)=O
 : -14&-3, -19&-7
CCN1C(=O)NC(c2ccccc2C(F)(F)F)C2=C1CN(C(Cc1ccccc1)C(=O)NCCCN1CCOCC1)C2=O (stereo not drawn)
 : 0, 6
Cc1nc2sc(C)c(C)n2c(=O)c1NC(=O)c1cccc(C(F)(F)F)c1
 : 11, 2
CCOc1ccc(N(CC(=O)NCCCOC)S(C)(=O)=O)cc1
 : -6, -14
Clc1ccc2nsnc2c1NC1=NCCN1
 : 1, -1
Cc1ccc(C(=O)N2CCc3nc(-c4ccccc4)nc(N4CC(C)OC(C)C4)c3C2)cc1[N+](=O)[O-] (stereo not drawn)
 : -10, -2
CC(=O)Nc1cccc(NC(=O)Cn2c(-c3nnc(C(C)C)o3)cc3ccccc32)c1
 : -3, -3
CCOC(=O)CSc1nc2c(cc1C#N)CCC2
 : -6, -9
O=C(CCc1ccccc1)N1CCN(c2cc(Oc3ccc(F)cc3F)ncn2)CC1
 : -1, 1
CCCCn1c(=O)c2c(nc3n(C)c(C)cn23)n(C)c1=O
 : -6, -10
C=CCNC(=O)N1CCC(OC(=O)NCC)c2ccccc2N(C)C(=O)C1 (stereo not drawn)
 : 4, 15
O=C(C1CCCCN1Cc1c(-c2ccc3c(c2)OCO3)nc2ncccn12)N1CCCC(O)C1 (stereo not drawn)
 : 2, 18
COc1nc(C)cc(C)c1CNS(=O)(=O)NCc1ccccc1
 : 8, 2
COCCCn1c(C)c(C)n2c3c(=O)n(Cc4ccccc4F)c(=O)n(C)c3nc12
 : 0, 3
CCNC(=O)c1c(C(F)(F)F)nn(C2CCCN(C(C)C)C2)c1C (stereo not drawn)
 : 9, 4
O=c1[nH]c2nc(-c3ccc(F)cc3)ccc2c2ccccc12
 : 0, 2
COC(=O)Cn1c(=NC(=O)c2nc3ccccc3s2)sc2cc(S(C)(=O)=O)ccc21
 : 2, 2
O=C(Nc1nc2c(F)cc(F)cc2s1)c1ccc2c(c1)OCO2
 : -9, -11
CC1=C(C(=O)OC2CCC(C)CC2)C(c2ccc(N(C)C)cc2)NC(=O)N1 (stereo not drawn)
 : 4, 11
Cc1cc(C)n(-c2c(F)c(F)c(CN3CCCCC3)c(F)c2F)n1
 : 9, 5
COc1ccc(S(=O)(=O)N2CCCN(Cc3cc(=O)c(OCc4ccc(SC)cc4)co3)CC2)cc1OC
 : 28, 20
CCC(=O)N1N=C(c2cccs2)CC1c1cccs1 (stereo not drawn)
 : 1, -1
Cc1ccc(-n2c(-c3ccco3)nc3nc4ccccc4nc32)cc1F
 : 3, -9
CCCOC(=O)C1=C(C)NC2=C(C(=O)CCC2)C1c1ccccc1OCCC (stereo not drawn)
 : 3, -4
COc1ccccc1OCC1CN(C(=O)c2ccc(OC(F)F)cc2)CCO1 (stereo not drawn)
 : 12, 27

Exported with each value named: entries from further up
O=C(Nc1nc2c(F)cc(F)cc2s1)c1ccc2c(c1)OCO2
  NPYLR7 ag: -9
  NPYLR7 ag max-min: -11
COC(=O)Cn1c(=NC(=O)c2nc3ccccc3s2)sc2cc(S(C)(=O)=O)ccc21
  NPYLR7 ag: 2
  NPYLR7 ag max-min: 2
CS(=O)(=O)N1CCC(C(=O)NCCn2ncc3c(N4CCCC4)ncnc32)CC1
  NPYLR7 ag: 0
  NPYLR7 ag max-min: -1
CC1=C(C(=O)OC2CCC(C)CC2)C(c2ccc(N(C)C)cc2)NC(=O)N1 (stereo not drawn)
  NPYLR7 ag: 4
  NPYLR7 ag max-min: 11

Carrying on.
Value order – NPYLR7 ag, NPYLR7 ag max-min
CSc1ccc(C(NS(=O)(=O)c2ccc3c(c2)CN(C(=O)C(F)(F)F)CC3)c2cccc(Cl)c2Cl)cc1 (stereo not drawn)
 : -4, -8
COc1ccc(C2CC(c3ccccc3F)=NN2C(=O)CN2CCOCC2)cc1 (stereo not drawn)
 : 1, 9
CC1CCCCN1C(=O)CSc1nnc(-c2cccnc2)n1C (stereo not drawn)
 : 1, 4
O=C(Nc1ccc(SCC(=O)N2CCc3ccccc32)nn1)C1CC1
 : 0, -2
N#CC(C(=O)c1oc2ccccc2c(=O)c1Cl)c1ccccn1 (stereo not drawn)
 : 12, 24
Cc1ccc(C=C2N=C(c3ccc(C(F)(F)F)cc3)OC2=O)cc1[N+](=O)[O-]
 : 1, 1
CCOC(=O)CSc1nc2ccc(NC(=O)CSc3nnc(C)s3)cc2s1
 : -5, -10
O=C(NC[C@H]1CCCO1)C1(Oc2ccc(Cl)cc2)CCNCC1
 : 1, -2
O=C(CC1CSc2nc3c(c(=O)n21)CCCC3)NC1CC1 (stereo not drawn)
 : -3, -6
COc1ccc(C(=O)N2CCC(c3cn(Cc4ccc(C(F)(F)F)cc4)c4ccccc34)CC2)cc1OC
 : -4, -6
Cc1ccc(C)c(OCC(=O)NN=Cc2ccc(O)cc2O)c1
 : -4, -8
COc1cccc(C2C(=C(O)c3ccc(C)cc3)C(=O)C(=O)N2CCN(C)C)c1OC (stereo not drawn)
 : 7, 6
CC(C)N(C(=O)COC(=O)c1ccc(Br)o1)C(C)C
 : 13, 10
COc1ccc(OCCCCOc2ccc(OC)cc2)cc1
 : 1, 0
CC1CCCN(c2ccc(C(F)(F)F)cc2[N+](=O)[O-])C1 (stereo not drawn)
 : -5, -9
Cc1ccc(CN2CCC(CN(C)Cc3c(C)nc4sccn34)CC2)o1
 : 5, 4
COCCN(Cc1nccn1Cc1ccc(F)cc1)C(=O)c1ccc(Cl)cc1
 : 1, 9
CCCCCN(CC(=O)Nc1cc(C(C)(C)C)nn1-c1ccc(C)cc1C)C(=O)Nc1ccc(Cl)cc1
 : -1, 0
COc1ccc(OCC(=O)NNC(=O)c2ccccc2C)cc1
 : -3, -10
Cc1csc(N2CCC(C(=O)NCCNc3ccncc3)CC2)n1
 : -2, -3
COC(=O)c1c(C)[nH]c(C(=O)Cn2cnc3sc(C)c(C)c3c2=O)c1C
 : 3, -1
CNC(=O)CN(C(=O)C1CC=CCC1)c1cccc(F)c1 (stereo not drawn)
 : -8, -9
Cc1cc(C(N)=O)c(NC(=O)Cn2cc(-c3ccccc3)nn2)s1
 : 2, 31
COc1ccc(-c2cccc(-n3cncc3C(=O)NC3CCC[C@H]3OCc3ccccc3)c2)cc1OC (stereo partly drawn)
 : -3, 9
CCOCCOC(=O)c1[nH]c(C)c(C(C)=O)c1C
 : 0, 2
CCc1ccc(C(C)NC(=O)COC(=O)c2sccc2S(=O)(=O)N2CCC(CO)CC2)cc1 (stereo not drawn)
 : -1, 9
O=S(=O)(c1ccc(Nc2ccc(F)cc2)nc1)N1CCCC1
 : 8, 6
Cc1nn(C)c(C)c1CN(Cc1cn(C)nc1-c1ccccc1F)C(C)C
 : 4, 2
CCNC(=O)N1CCN(c2nc(Cc3ccccc3)nc3c2c(C)nn3-c2ccc(F)cc2)CC1
 : 6, 5
CC1CC(N(C)Cc2nccn2C(F)F)C(=O)O1 (stereo not drawn)
 : -1, -5

One compound at a time, as listed above. Order of values: NPYLR7 ag	NPYLR7 ag max-min
Results for COc1cccc(C2C(=C(O)c3ccc(C)cc3)C(=O)C(=O)N2CCN(C)C)c1OC (stereo not drawn) : 7	6
Results for Cc1cc(C(N)=O)c(NC(=O)Cn2cc(-c3ccccc3)nn2)s1 : 2	31
Results for CC1CCCCN1C(=O)CSc1nnc(-c2cccnc2)n1C (stereo not drawn) : 1	4
Results for Cc1ccc(CN2CCC(CN(C)Cc3c(C)nc4sccn34)CC2)o1 : 5	4

(listing goes on)
Value order – NPYLR7 ag, NPYLR7 ag max-min
CCOC(=O)C1(Cc2ccccc2Cl)CCN(C(=O)C2=C(C)OCCO2)CC1
 : 1&5, -1&7
COc1ccccc1-c1cc(C(=O)NCc2ccc(F)cc2)n2nc(-c3ccc(Cl)cc3)cc2n1
 : 5, 3
CN(C)c1ccc(C2C3=C(CC(C)(C)CC3=O)OC(=N)C2C#N)cc1 (stereo not drawn)
 : 17, 9
O=C(c1cccc([N+](=O)[O-])c1)N1CCc2ncn3nc(-c4ccco4)nc3c2C1
 : -1, -2
Cc1cc(CC(C)Nc2nccc(CCC(F)(F)F)n2)n[nH]1 (stereo not drawn)
 : 7, 5
O=C(Nc1cccc2c(=O)[nH][nH]c(=O)c12)C1Cc2ccccc2O1 (stereo not drawn)
 : 0, -1
CCn1nc(CNC(=O)C2CC3(CCNCC3)CN2)c2ccccc21 (stereo not drawn)
 : 4, 1
COCC(=O)NCCOc1ccc(-c2ccc(OC)cc2)nn1
 : -7, -7
CC(C)NC(=O)c1ccc(C2CCCN2C(=O)/C=C/c2cnn(C)c2)s1 (stereo not drawn)
 : 2, 2
Cn1cccc1CN(Cc1ccco1)S(=O)(=O)c1ccc(Cl)c([N+](=O)[O-])c1
 : 6, 1
CCOc1ccccc1OCCCC(=O)N1CCCC(C(=O)NC)C1 (stereo not drawn)
 : 11, 7
C=CCN(C(C)C(=O)c1c(C)c(C(=O)OCC)n(C)c1C)S(=O)(=O)c1ccc(Br)cc1 (stereo not drawn)
 : 19, 21
CN(C)C(=O)c1nn(-c2c(Cl)cc(Cl)cc2Cl)cc1O
 : 7&1, 4&-1
CCN1C(=O)N(Cc2cccc3ccccc23)C(=O)C12CCN(Cc1ccc(SC)cc1)CC2
 : 16, 10
c1ccc(-n2nnnc2Sc2ncnc3sc4c(c23)CCC4)cc1
 : -8, -20
Cc1ccc(-n2c(SCc3ccccc3)nnc2C(Cc2ccccc2)NC(=O)c2cccc(Br)c2)cc1 (stereo not drawn)
 : -12, -6
O=P1(NN=Cc2ccccc2Cl)C=C(c2ccccc2)OC(c2ccccc2)=C1
 : -3, -10
CN1C(=O)CC(C(=O)Nc2ccc(C(=O)O)cc2)SC1=Nc1ccc(F)cc1 (stereo not drawn)
 : 0, -1
Cc1c(C(=O)NCCCOC(C)C)c(C(F)(F)F)nn1C1CCCN(C)C1 (stereo not drawn)
 : 9, -1
O=C1c2ccccc2C(=O)c2c1oc1c3c(ccc21)OCN(CCCN1CCOCC1)C3
 : 4, 3
COCCOC(=O)C1=C(C)N(c2ccc3c(c2)OCO3)C(=O)NC1c1ccc(F)cc1F (stereo not drawn)
 : -7, -10
CCOC(=O)c1cc(-c2cccc(OC)c2)n(-c2ccc(C(=O)NCCCn3ccnc3)cc2)n1
 : 8, 18
CC(=O)c1ccc(N2CC(O)(c3ccc(C(C)(C)C)cc3)[N+]3=C2SCCC3)cc1 (stereo not drawn)
 : 8, 6
CN(C)CCN(Cc1ccccn1)C(=O)C(=O)Nc1ccc(F)cc1
 : -1, -1
CCCC(C)NC(=O)c1ccc(Cl)c(Cl)c1 (stereo not drawn)
 : 6, 1
CCC(C)(C)NCC(=O)N1CCc2cc(-c3csc(C)n3)ccc21
 : 2, 2
O=c1c2cc3c(=O)n(-c4cccc(Cl)c4)ccc3nc2ccn1CCO
 : 1, -1
COc1ccccc1-n1c(SCc2nc(C(=O)NCCc3ccccn3)cs2)nnc1-c1ccccc1Cl
 : 5, 16
Cc1cc(=O)n(CC(=O)Nc2ccncc2)cn1
 : 5, -4
C=C(C)Cn1c(=O)c2c(nc3n2CC(C)=NN3Cc2ccccc2Cl)n(C)c1=O
 : -9, -12

More entries:
structure | NPYLR7 ag | NPYLR7 ag max-min
N#CC1C(=N)C(C#N)(C#N)C(c2ccncc2)C2CCCC=C12 (stereo not drawn) | 9 | 4
CCOC(=O)c1sc(NC(C)=O)c(C#N)c1C | -2 | -4
COc1c(C)cc(C(=O)N2CCOC(COCc3ccccc3)C2)cc1C (stereo not drawn) | -2 | 10
CCN(CC)Cc1cnc2c(C(=O)N3CCC3c3ccccc3)cnn2c1 (stereo not drawn) | 1 | -2
O=C(NCCc1c[nH]c2ccccc12)C1(c2ccccc2)CCCC1 | -2 | -7
CN(C)c1nc2c(c(=O)[nH]1)CCN(C(=O)CCc1ccc3c(c1)OCO3)C2 | 3 | 1
Cc1nc2cc(-c3ccn[nH]3)ccc2s1 | 8 | 6
CCCc1nnc(-c2cc3ccccc3n2CC(=O)Nc2ccc3c(c2)OCCO3)o1 | -6 | -3
CC(CC#N)Sc1ccccc1NC(=O)C1CC(=O)N(CC2CC2)C1 (stereo not drawn) | -7 | -8
COc1cccc(Nc2cc(N3CCC[C@H]3C(=O)N3CCOCC3)nc(N)n2)c1 | -5 | -6
NC(=O)c1cncc(NCc2ccccc2)n1 | 6 | 2
Cc1noc(C)c1S(=O)(=O)NCc1ccc2c(c1)OCO2 | 5 | -2
O=C(CCc1cccnc1)N1CCOC(COCc2cccc(C(F)(F)F)c2)C1 (stereo not drawn) | 24 | 20
CN(Cc1ccc2nsnc2c1)C(=O)C1CCC(=O)N(CCc2ccccc2)C1 (stereo not drawn) | 16 | 4
CC1CCN(c2nc3c(c(=O)[nH]c(=O)n3C)n2CCSc2nc3ccccc3o2)CC1 | 0 | 10
N[C@@H](CS(=O)O)C(=O)O | 8 | -10
C=CCc1ccccc1OCC(O)CN1CCC(C)CC1 (stereo not drawn) | 5 | 5
Cc1cc(C)c(C)c(S(=O)(=O)NC(C)(C)Cc2c[nH]c3ccccc23)c1C | -18 | -33
Cc1cc(C)n(C(=O)CSc2nc(-c3ccccc3)cc(C(F)(F)F)c2C#N)n1 | -10 | -15
Cc1ccc(C(=O)Nc2cc(C(=O)N3CCOCC3)cn(C)c2=O)cc1C | -17 | -24
CCc1nc2ccc(C(=O)N3CCCC(C(N)=O)C3)cn2c1N(C)Cc1cccs1 (stereo not drawn) | 8 | 4

Two compounds picked at random from the list so far:
structure | NPYLR7 ag | NPYLR7 ag max-min
CCCc1nnc(-c2cc3ccccc3n2CC(=O)Nc2ccc3c(c2)OCCO3)o1 | -6 | -3
Cc1ccc(C(=O)Nc2cc(C(=O)N3CCOCC3)cn(C)c2=O)cc1C | -17 | -24

Screening results: PubChem BioAssay, Fisher Drug Discovery Resource Center
